Source: PubChem
Methyltransferases: Primary Screen for Target Class Profiling of Small Molecule Inhibitors of Methyltransferases; purified enzyme, MTase-Glo SAH luminescence; hits give low values; calls only at 40 µM; 3.9% of 25,000 active; AID 1745853, 2022; active = -50% or lower on at least one of six enzymes; inconclusive = the cases between; inactive = as a rule above -30% on all six;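 further: enzymes were COMT GAMT GNMT HNMT NNMT and PNMT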
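Each enzyme was reacted with SAM and its substrate, with compounds tested once at 40 uM; SAH formed was read by MTase-Glo luminescence.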
Calls only; i = inactive; ? = inconclusive; + = active, no number. On the % scale 0 is the no-effect control and ±100 the full control effect.

compound,Methyltransferases
Cc1ccc(NC(=O)CSc2nnc3n(CCC(C)C)c(=O)c4ccccc4n23)c(Cl)c1,i
O=C1CC(Cc2ccccc2)CN1CC(=O)N1CCOC2(CCCC2)C1 (stereo not given),i
Cc1cc(C)c(CNC(=O)c2nc(-c3cccnc3)cc3[nH]ccc23)c(=O)[nH]1,?
CCC(C)C(=O)N1CCC2(CCc3nn(Cc4ccccc4)c(=O)n3CC2)CC1 (stereo not given),i
CN1CCN(CCCNC(=O)CCCn2nc(-c3ccccc3)c3cc(Cl)ccc32)CC1,i
CC(C)=CCC(O)/C(C)=C/CO[C@@H]1O[C@H](CO)[C@@H](O)[C@H](O)[C@H]1O (stereo not given in full),+
CCCn1c(=O)c2ccccc2n2c(=O)n(CC(=O)N3CCN(c4ccccc4F)CC3)nc12,i
Cc1cnn(CC(=O)N2CC(F)(F)C[C@H]2c2nc(C3CC3)no2)c1,i
CN(Cc1ccc(OC(F)(F)F)cc1)Cc1ccccc1C(F)(F)F,i
CN(C)c1ccc(C(=O)N[C@H]2C[C@H]3C(=O)NC[C@@H](CCC(=O)N4CCc5ccccc54)N3C2)cc1,i
CCCn1c(=O)c2ccc(Cl)cc2n2c(=O)n(Cc3ccc(C)cc3)nc12,i
C/C=C(\C)C(=O)OC[C@H]1O[C@@H](O[C@H]2[C@@H](O[C@H]3O[C@H](CO)[C@@H](O)[C@H](O)[C@H]3O[C@@H]3O[C@H](CO)[C@@H](O)[C@H](O)[C@H]3O)O[C@H](COC(=O)/C(C)=C/C)[C@@H](O)[C@@H]2O)[C@H](O)[C@@H](O)[C@@H]1O,i
COc1ccc(NS(=O)(=O)c2ccc3c(c2)n(C)c(=O)n3C)cc1,i
Cc1ccc(Cn2c(=O)c3ccccc3n3c(=O)n(CC(=O)Nc4ccc5c(c4)OCO5)nc23)cc1,i
N[C@H]1Cc2ccccc2N(O)C1=O,i
COCC(=O)N(C1CCOCC1)C1CCN(C(=O)c2cccnc2C)CC1,i
Cc1ccc(C)c(NS(=O)(=O)c2ccc3[nH]c(=O)[nH]c3c2)c1,i
CC1C(O)C(O)C2C(C(=O)OCCc3ccc(O)cc3)=COC(O[C@@H]3O[C@H](CO)[C@@H](O)[C@H](O)[C@H]3O)C12 (stereo not given in full),i
Cc1ccc(CCNC(=O)c2ncn3c2C(=O)N(C2CC2)C(C)(C(=O)NC2CCCC2)C3)cc1 (stereo not given),i
COc1cc(C(C)=O)ccc1O[C@@H]1O[C@H](CO)[C@@H](O)[C@H](O)[C@H]1O,i
CCCn1c(=O)c2ccc(C(=O)NC3CCCC3)cc2n2c(=O)n(Cc3cccc(Cl)c3)nc12,i
Cn1nc(NC(=O)C2CCS(=O)(=O)C2)c2c(Oc3cccnc3)cccc21 (stereo not given),i
CN(Cc1ccccc1)C1CCOC2(CCN(C(=O)CCc3nc4ccccc4[nH]3)CC2)C1 (stereo not given),i
C=C1C[C@@]23CC[C@@H]4[C@](C)(C(=O)O)CCC[C@@]4(C)C2=CC[C@H]1C3,i
CN(c1ccccc1)c1cc(=O)c2ccnc(-c3ccc(CO)cc3)c2o1,?
O=C(c1cnc2ccccn12)N1CCc2c(nc(-c3ccccc3)[nH]c2=O)C1,i
CN1CCN(Cc2ncc[nH]2)CC12CCC(=O)N(CC(=O)O)CC2 (stereo not given),i
CCCNC(=O)N1CC(Oc2ccc(-c3nc(C)no3)cc2)C1,i
Nc1cccc(-c2csc(NC(=O)CCCCCCC(=O)NO)n2)c1,?
C=Cc1cc2oc(-c3ccc(O)c(F)c3)nc2cc1O,+
CC1CCN(S(=O)(=O)c2ccc3c(ccn3CCC(=O)NCC3CCCO3)c2)CC1 (stereo not given),i
O=C(O)c1cccc(-c2cccc(C(F)(F)F)c2)c1,i
O=C(O)C1CCNCC1,i
C=C1C(O)CC2C(C(=O)O)=COC(O[C@@H]3O[C@H](COC(=O)c4ccc(O)cc4)[C@@H](O)[C@H](O)[C@H]3O)C12 (stereo not given in full),i
CC1(C(=O)NCc2ccccc2)Cn2c(cc3ccccc32)C(=O)N1Cc1cccs1 (stereo not given),i
COCCCNC(=O)Cn1ccc2cc(S(=O)(=O)N3CCCCC3)ccc21,i
O=C(c1ccc(N2CCC(O)CC2)nc1)N1CCC(N2CCOCC2)CC1,i
CC(C)OCCCn1c(=O)c2cc(Cl)ccc2n2c(SCc3cccc(F)c3)nnc12,i
O=C(O)c1ccnc2cc(-c3nc4ccccc4n3CCN3CCCCC3)sc12,i
O=C1NC2(CCN(Cc3ccccc3C(F)(F)F)C2)COc2ccccc21 (stereo not given),i
Cc1nc(CN2CCN(c3nccc(-c4cccnc4)n3)CC2)cs1,i
CN1C[C@@H](NC(=O)CC(C)(C)CC(=O)O)C[C@H]1c1nc(-c2ccccn2)no1,i
CCc1ccccc1NC(=O)CN(C)S(=O)(=O)c1ccc2[nH]c3c(c2c1)CCCC3,i
Cc1ccc(C)c(NC(=O)N2CCn3c(C)ccc3C2C(C)C)c1 (stereo not given),i
CC(C)Cn1c(=O)c2ccccc2n2c(SCC(=O)Nc3ccc(F)cc3F)nnc12,i
CN(C)CC1(O)CCC2(CCN(C(=O)CCC3CCCC3)CC2)CC1,i
CCCn1c(=O)c2ccccc2n2c(SCC(=O)Nc3ccc(C)cc3)nnc12,i
CC(C)OCCCn1c(=O)c2ccccc2n2c(CCC(=O)NC3CCCCC3)nnc12,i
O=C(Nc1ccc(F)c(Cl)c1)N1Cc2c(sc3c2CCCC3)-n2cccc2C1c1ccccc1 (stereo not given),i
COc1ccccc1CNC(=O)C1(C)Cn2nc(-c3ccccc3)cc2C(=O)N1Cc1ccco1 (stereo not given),i
C#CC[C@H](c1nc2cc(Cl)ccc2c(=O)n1Nc1ccccc1)N(CCCN)C(=O)c1cccc(Cl)c1F,?
CC1(C(=O)NC2CCCC2)Cn2c(ccc2-c2ccco2)C(=O)N1Cc1cccc(Cl)c1 (stereo not given),i
CCc1cc2c(cc3n2CC(C)(C(=O)NC2CCC(C)CC2)N(CCc2ccccc2)C3=O)s1 (stereo not given),i
CCCN(C/C=C/c1ccccc1)C(=O)c1cccc(OCC(N)=O)c1,i
Cc1cccc2nc(CNC(=O)c3cccc(C4CCNC4)c3)cn12 (stereo not given),i
COc1ccc(OC)c2c1cc1n2CC(C)(C(=O)NC2CCCCCC2)N(CCC(C)C)C1=O (stereo not given),i
Cc1cc(Cl)ccc1OCC(=O)N[C@@H]1CCOC[C@H]1OCC(=O)O,i
CCC(C)C(=O)OC1CC(C)C=C2C=CC(C)C(CCC(O)CC(O)CC(=O)O)C21 (stereo not given),i
CCCn1c(=O)c2ccc(Cl)cc2n2c(=O)n(Cc3cccc(C)c3)nc12,i
Cc1oc2ccn(C)c(=O)c2c1C(=O)NCc1cc(F)ccc1F,?

Arranged by molar mass (largest number first): part of the list above
compound,Methyltransferases
CCc1cc2c(cc3n2CC(C)(C(=O)NC2CCC(C)CC2)N(CCc2ccccc2)C3=O)s1 (stereo not given),i
COc1ccccc1CNC(=O)C1(C)Cn2nc(-c3ccccc3)cc2C(=O)N1Cc1ccco1 (stereo not given),i
CC1(C(=O)NC2CCCC2)Cn2c(ccc2-c2ccco2)C(=O)N1Cc1cccc(Cl)c1 (stereo not given),i
CC(C)OCCCn1c(=O)c2ccccc2n2c(CCC(=O)NC3CCCCC3)nnc12,i
CCC(C)C(=O)OC1CC(C)C=C2C=CC(C)C(CCC(O)CC(O)CC(=O)O)C21 (stereo not given),i
CCCN(C/C=C/c1ccccc1)C(=O)c1cccc(OCC(N)=O)c1,i
CN(C)CC1(O)CCC2(CCN(C(=O)CCC3CCCC3)CC2)CC1,i

Remaining list, next part
Cc1cnc(CN2CC3(CCCN(C(=O)c4ccc(C)s4)C3)CCC2=O)cn1 (stereo not given)
  Methyltransferases: i
CN(CCN1C(=O)c2cc3sccc3n2CC1(C)C(=O)NC1CCCCCCC1)C1CCCCC1 (stereo not given)
  Methyltransferases: i
CCOCCCNC(=O)N1Cc2c(sc3c2CCCC3)-n2cccc2C1c1ccccc1 (stereo not given)
  Methyltransferases: i
CCN1CCN(C(=O)CCC2CCN(S(=O)(=O)c3ccccc3)CC2)CC1
  Methyltransferases: i
CCOc1cccc(-c2nc(C(=O)Nc3ccc(F)cc3)cs2)c1
  Methyltransferases: i
CC(NC(=O)C1CCCN(c2cnc3nccnc3c2)C1)c1cccnc1 (stereo not given)
  Methyltransferases: i
CCCn1c(=O)c2cc(Cl)ccc2n2c(SCC(=O)Nc3cccc(C)c3)nnc12
  Methyltransferases: i
CN1CCN(Cc2nnc(C(=O)N3CCC[C@@H]3c3ccc(Br)cc3)n2Cc2ccccc2)CC1
  Methyltransferases: i
CC1(C)CC[C@]2(C(=O)O[C@@H]3O[C@H](CO)[C@@H](O)[C@H](O)[C@H]3O)CC[C@]3(C)C(=CCC4[C@@]5(C)CC[C@H](O[C@@H]6O[C@H](C(=O)O)[C@H](O)[C@H](O)[C@H]6O)C(C)(C)C5CC[C@]43C)[C@@H]2C1 (stereo not given in full)
  Methyltransferases: +
COCCN1CCCC2(CCN(C(=O)c3ccc(Cl)s3)C2)C1=O (stereo not given)
  Methyltransferases: i

Cc1ccc(NC(=O)N2Cc3c(sc4c3CCCC4)-n3cccc3C2c2cccc(F)c2)cc1F (stereo not given)
  Methyltransferases: i
CCOC(=O)CCNC(=O)N1CCCC(c2nc(-c3cnccn3)no2)CCNC(=O)CC1 (stereo not given)
  Methyltransferases: i
Cc1[nH]nc(C(=O)N[C@@H]2COCC[C@@H]2OCc2ccccc2)c1Cl
  Methyltransferases: i
O=C(O)CCc1cccc(O)c1O[C@@H]1O[C@H](CO)[C@@H](O)[C@H](O)[C@H]1O
  Methyltransferases: ?
CN(C)c1ccc(CNC(=O)Cn2ccc3cc(S(=O)(=O)N4CCCCC4)ccc32)cc1
  Methyltransferases: i
CC(C)C1(O[C@@H]2O[C@H](CO)[C@@H](O)[C@H](O)[C@H]2O)CC=C(CO)CC1 (stereo not given in full)
  Methyltransferases: i
Cc1ccc(C)c(C(=O)Cn2nc3n(C(C)C)c(=O)c4ccc(C(=O)NC5CCCCC5)cc4n3c2=O)c1
  Methyltransferases: i
COc1cccc(CNc2nc3c(S(=O)(=O)c4ccccc4)nnn3c3ccccc23)c1
  Methyltransferases: i
Cc1ccc(-c2cn3c(n2)N(C(=O)C2CCCO2)CCC3)cc1 (stereo not given)
  Methyltransferases: i
O=C(Cc1ccccn1)NCCNC(=O)c1ccc(-c2cccc(C(F)(F)F)c2)cc1
  Methyltransferases: i

CCC(CC)C(=O)NCCc1noc(C)n1
  Methyltransferases: i
C=CCC1(CO)CCCN(Cc2nc(C)cc(-c3ccccc3)n2)C1 (stereo not given)
  Methyltransferases: ?
C=CC(C)(O)C(O)CC1C(C)(O)C(O)C(O)C2C(C)(C)CCCC21C (stereo not given)
  Methyltransferases: i
CC(C)Cn1c(=O)c2ccccc2n2c(CCC(=O)NCCCOC(C)C)nnc12
  Methyltransferases: i
CC(=O)Nc1c2n(c3ccc(F)cc13)CC(C)(C(=O)NC1CCCC1)N(Cc1ccco1)C2=O (stereo not given)
  Methyltransferases: i
Cc1ccc(C2(O)CCN(c3nc(C)ccc3C(N)=O)CC2)nc1
  Methyltransferases: i
COc1ccc(NS(=O)(=O)c2cc3[nH]c(=O)[nH]c3cc2C)c(OC)c1
  Methyltransferases: i
Cc1ccc(OCCSc2ncccn2)c(Br)c1
  Methyltransferases: ?
OC1(Cn2ccnc2)CCN(Cc2ccccc2Cn2cccn2)CC1
  Methyltransferases: +
CCCn1c(=O)c2cc(F)ccc2n2c(SCc3cc(C)ccc3C)nnc12
  Methyltransferases: i

CC(C)(C)c1cc(C(=O)NCc2cccnc2)nn2cccc12
  Methyltransferases: i
COc1cccc(-c2cc(C(=O)N3CCC(Cn4cccn4)CC3)[nH]n2)c1
  Methyltransferases: i
CC1(C)CC[C@]2(C(=O)O[C@@H]3O[C@H](CO)[C@@H](O)[C@H](O)[C@H]3O)CC[C@]3(C)C(=CCC4[C@@]5(C)C[C@@H](O)[C@H](O)[C@@](C)(CO)C5CC[C@]43C)C2[C@@H]1O (stereo not given in full)
  Methyltransferases: +
CCOc1ccccc1CN1CCC[C@H]1C(=O)N1CCCCCCNC(=O)CC1
  Methyltransferases: i
O=C1NC(=NC2CCCCC2)C2(CCCN([S+](=O)([O-])c3cccc(C(F)(F)F)c3)C2)N1c1cc(F)cc(F)c1 (stereo not given)
  Methyltransferases: i
CCN(CC)c1ccc(N2C(=O)c3ccc(-c4ccco4)n3CC2(C)C(=O)NCc2ccccc2)c(C)c1 (stereo not given)
  Methyltransferases: i
Cc1cccc(-c2cn[nH]c2C2CCN(C(=O)c3cc(=O)[nH]c(=O)[nH]3)CC2)c1
  Methyltransferases: i
O=[S+]([O-])(Nc1ccccc1)c1ccc2c(c1)OCCN(Cc1nccs1)C2
  Methyltransferases: i
NS(=O)(=O)c1ccc(N2N=C(c3ccccc3)CC2c2ccccc2)cc1 (stereo not given)
  Methyltransferases: ?
COc1c(C(O)CC(C)C)ccc2c1C(=O)OCc1cc(C)cc(O)c1O2 (stereo not given)
  Methyltransferases: i

Cn1ccnc1-c1ccc(N2CCCC(CO)(CCOc3ccccc3)C2)nn1 (stereo not given)
  Methyltransferases: i
O=c1ncn(CC2CC2)c2ccc(N3CCC(c4ccccc4)CC3)nc12
  Methyltransferases: i
COc1cccc(S(=O)(=O)N2CCC(c3noc(-c4ccccn4)n3)C2)c1 (stereo not given)
  Methyltransferases: i
COc1cccc(CNC(=O)C(C)n2ccc3cc(S(=O)(=O)N4CCCCC4)ccc32)c1OC (stereo not given)
  Methyltransferases: i
O=C(COc1ccccc1)N[C@H]1CO[C@H]2[C@@H]1OC[C@@H]2n1nnnc1Oc1ccc2c(c1)OCO2
  Methyltransferases: i
COc1ccc(CN2C(=O)c3cc(-c4cccs4)nn3CC2(C)C(=O)NC2CCCCC2)cc1 (stereo not given)
  Methyltransferases: i
CCCn1c(=O)c2ccc(C(=O)NC3CCCC3)cc2n2c(=O)n(CC(=O)c3ccc(Cl)cc3)nc12
  Methyltransferases: i

Fetched one by one from the list above, two records:
COc1cccc(CNC(=O)C(C)n2ccc3cc(S(=O)(=O)N4CCCCC4)ccc32)c1OC (stereo not given)
  Methyltransferases: i
O=C(COc1ccccc1)N[C@H]1CO[C@H]2[C@@H]1OC[C@@H]2n1nnnc1Oc1ccc2c(c1)OCO2
  Methyltransferases: i

Not all compounds are listed; rates above refer to the full screens.
